CSC inhib = cancer stem cell inhibition; 300,000 compounds, 1.1% hits; inhibition, % at 7.5 µM; cancer stem cell-like cells viability, luminescence;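 active = mean at 75% or more and at least half the replicates too; tested in HMLE shEcad cells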;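 also: 0% = median of negative and 100% = median of positive control wells; the first replicate is given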
Yeast UUG start = alters start codon recognition fidelity in yeast; S. cerevisiae UUG-firefly luciferase reporter, luminescence/redox ratio; AID 602363; activity score, % at 18.7 µM; 350,000 compounds, 0.13% hits;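 active = replicate mean at a twofold rise or more, about +100% in these data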;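 also: firefly luciferase made from a UUG start codon reports start codon fidelity; reporter light over untreated wells divided by growth signal over untreated wells; some hits fall short of that in this replicate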
HIV Env fusion = inhibitors of HIV Env-mediated cell fusion. HeLa-JRFL Env/CEM21 cell fusion, luciferase. inhibition, % at 12.3 µM. AID 651610. 360,000 compounds, 1.1% hits;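 active = mean replicate inhibition score of at least 50 and every replicate individually at or above 50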;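 also: 0% = plate neutral controls and 100% = maraviroc near 300 nM; one replicate is shown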
PABP FP inh = PABP-poly(A) binding inhibition | 290,000 compounds, 1% hits | inhibition, % at 35 µM | PABP-poly(A) RNA binding, fluorescence polarization;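 active = 50% or more with normal probe brightness, or confirmed in later tests; about a fifth of its hits are not listed in these tables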;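 also: calls also rest on retests at 20 µM and on dose response follow-up; controls were probe without protein and protein plus probe with vehicle; some compounds called inactive have numbers as strong as hits; many hits fall short of the cut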
MT1-MMP act inh = inhibitors of human MT1-MMP activation; P50281; HT1080 RFP-PRO-GFP cells, GFP/RFP ratio fluorescence, overnight; percent of plate control window, DMSO zero; GFP/RFP ratio change, % at 20 µM; 360,000 compounds, 0.061% hits; AID 651647;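 active = GFP/RFP ratio change of at least 30% with cell ATP level not reduced by more than half and red fluorescence within 50% of control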; also: strong numbers were not always called active
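Material: RFP-PRO-GFP reporter HT1080 cells. Dosing: single-point 20 µM compound, 1% DMSO. Controls: DMSO and RFP-L50D-GFP cell wells. Timing: cells overnight before dosing, compound overnight, 37 °C, 5% CO2. Measure: GFP/RFP fluorescence ratio.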
Rce1 inh = inhibitors of yeast Ras-converting enzyme | Q03530 | yeast membranes, quenched prenylated peptide cleavage fluorescence | calls only | 290,000 compounds, 0.27% hits;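 active = fall in fluorescence gain of 50% or more versus controls, with final raw signal at or below 3038400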;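 also: plate controls were neutral control wells for no effect and wells lacking membranes for full effect; tested at 10 µM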
Target sequence (Q03530 whole entry, looked up): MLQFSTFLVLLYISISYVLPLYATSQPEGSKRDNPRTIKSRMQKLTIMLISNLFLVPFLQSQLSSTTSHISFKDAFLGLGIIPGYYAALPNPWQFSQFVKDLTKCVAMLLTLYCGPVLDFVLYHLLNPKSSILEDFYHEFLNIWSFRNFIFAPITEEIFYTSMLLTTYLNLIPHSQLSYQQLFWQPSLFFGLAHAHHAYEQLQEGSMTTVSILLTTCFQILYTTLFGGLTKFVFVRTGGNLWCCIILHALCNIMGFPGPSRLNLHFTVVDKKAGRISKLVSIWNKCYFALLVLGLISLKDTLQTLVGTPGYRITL
eIF4H FP inh = inhibitors of RNA binding by human eIF4H; Q15056; eIF4H fluorescence polarization binding assay; inhibition, % at 35 µM; 290,000 compounds, 0.94% hits;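 active = 50% or more with normal probe brightness, or confirmed in later tests; about a fifth of its hits are not listed in these tables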;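 also: calls also rest on retests at 20 µM and on dose response follow-up; 0% = protein and probe with vehicle and 100% = probe without protein; strong numbers were not always called active; many hits fall short of the cut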
eIF4H FP inh retest = also measured in eIF4H FP inh; calls as there; inhibition, %; compound at 20 µM; confirmation average;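 mean of two retest wells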
PABP FP inh retest = also measured in PABP FP inh; calls as there; inhibition, %; compound at 20 µM; confirmation repeats;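 mean of two retest wells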
MT1-MMP act inh RFP = also measured in MT1-MMP act inh; calls as there; RFP signal change, %; measured here: RFP expression control read;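 0 = vehicle wells; hits needed this value within 50% of zero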
Numbers without * were called inactive; i = inactive; x = no result given. This is a subset, so the mix of outcomes need not match the whole.

SMILES	CSC inhib	Yeast UUG start	HIV Env fusion	PABP FP inh	MT1-MMP act inh	MT1-MMP act inh RFP	Rce1 inh	eIF4H FP inh	others
Cc1cc(C2(c3ccc(O)c(C)c3)C(=O)N(C)c3ccc(Br)cc32)ccc1O	x	10	-6	x	-1	0	i	x
O=C(CCC1CCCC1)N1CCC(N2CCN(c3ccccc3)CC2)CC1	11	-7	-54	4	-2	1	i	-5
c1cncc(CN2CCN(c3cc(-c4cnc5ccccc5c4)nc4ccnn34)CC2)c1	x	-11	-22	x	2	1	x	x
O=C(Cc1ncc(C(F)(F)F)cc1Cl)N1CCN(c2cccc(Cl)c2)CC1	-11	-15	-3	1	2	1	i	-1
COc1cccc(C(=O)NC2CC3CCCC(C2)N3CC(=O)Nc2ccccc2C(F)(F)F)c1 (centres undefined)	7	-2	26	7	-2	-10	i	-10
COc1ccc(S(=O)(=O)Cc2ccc(C(=O)NCC(OC)OC)o2)cc1	-14	-2	-8	2	1	4	i	-1
COc1cccc(CC(=O)OCC(=O)c2cc(OC)c(OC)c(OC)c2)c1	-4	21	3	x	1	6	x	x
CC(C)NC(=O)c1ccc(NC(=O)CC2SC(N3CCCC3)=NC2=O)cc1 (centres undefined)	-8	10	4	x	0	7	x	x
O=C(N/N=C/c1cccnc1)c1cccc(NC(=O)c2cccc(Br)c2)c1	x	-14	3	-1	-1	-6	i	3
Cc1ccc(S(=O)(=O)N2CCN(CC(=O)NCC3(N4CCOCC4)CCCCC3)CC2)cc1	x	-15	-12	x	-4	-1	x	x
Cc1cccc2cc(C(c3nnnn3C(C)(C)C)N(Cc3ccco3)CC3CCCO3)c(=O)[nH]c12 (centres undefined)	-8	-8	-100	-1	-18	-17	i	2
CCOc1cnc(C(=O)NNC(=O)c2ccccc2Br)o1	1	6	-2	13*	1	3	i	86*	eIF4H FP inh retest=95*;PABP FP inh retest=95*
O=C(CSc1nccc(=O)[nH]1)Nc1ccccc1Sc1ccccc1	-2	x	6	-6	0	2	i	-6
COc1ccccc1NS(=O)(=O)c1cc(C(=O)NCC(c2ccco2)N2CCCCC2)ccc1C (centres undefined)	-1	x	x	x	5	-2	i	x
Cc1cc(=O)oc2cc(NC(=S)NCc3cccnc3)ccc12	-11	-27	-13	-1	5	3	i	-10
Cc1ccccc1NC(=O)c1ccc(OCC(=O)Nc2ccccc2F)cc1	x	x	-4	-7	2	2	i	-2
O=C(Nc1cc(Br)c(O)c(Br)c1)c1cccc(NC(=O)c2ccco2)c1	-13	-6	14	10	5	-6	i	-15
Cc1ccc(S(=O)(=O)N2CCN(C(=O)CCC(=O)NCCc3ccc(S(N)(=O)=O)cc3)CC2)c(C)c1	-3	x	6	9	-4	1	i	2
CC12CC3(C)CC(C)(C1)CC(C(=O)NC(=S)N1CCCC1)(C2)C3	10	3	12	50	3	8	x	14
COCc1c(C(=O)OCc2c(C)noc2C)oc2ccccc12	7	x	-1	6	2	0	i	-1
Cc1cc(C)c(CSc2ncc(-c3ccc([N+](=O)[O-])cc3)[nH]2)c(C)c1	63	-7	x	-1	-1	-13	i	-12
CCc1nnc(NC(=O)CSc2nc(-c3ccc(F)cc3)cc(-c3ccccc3)c2C#N)s1	x	x	5	-3	-4	0	x	0
CCc1nc(SCC#N)c(C#N)cc1C	-1	x	x	1	x	x	i	-12
O=C(NC(=S)N(Cc1ccccc1)c1ccccn1)C1CC1	-4	-20	3	-12	2	1	i	-7
CCCCCOc1ccc(CSc2n[nH]c(C)n2)cc1	14	x	-2	-6	-2	-11	i	-2
COc1ccc2cc(CN(CCCN3CCOCC3)Cc3nnnn3C3CCCCC3)c(=O)[nH]c2c1	-1	0	-22	12	2	-1	i	5
Cc1cc(F)ccc1C(O)c1ncc(-c2ccccc2F)[nH]1 (centres undefined)	x	-35	-25	x	1	-3	x	x
CCOC(=O)Nc1cc(Br)c2c(c1)OCCO2	6	-13	x	3	2	3	i	6
CC(=O)Nc1ccc(NC(=O)COC(=O)c2ccccc2C(=O)c2ccccc2)cc1	3	8	x	x	-1	-8	x	x
COc1ccc(-c2cc(C(=O)O)nc3ccc4ccccc4c23)cc1OC	1	x	-30	41	2	-1	i	0
Cc1cccc(NC(=O)C2CCCN2C(=O)OCc2ccccc2)c1 (centres undefined)	-8	-8	x	x	1	5	x	x
O=S(=O)(NCC(c1cccnc1)N1CCN(c2ccccc2F)CC1)c1cccs1 (centres undefined)	12	4	-4	-10	2	5	i	-4
Cc1ccccc1Nc1nc(=O)c2cc([N+](=O)[O-])ccc2s1	9	-15	5	10	-4	-2	i	-1
COc1ccc(OC)c(Nc2nc3ccc(C)cc3n3cnnc23)c1	12	-14	19	9	3	1	i	-3
CCN(CC(=O)Nc1ccc2c(c1)OCCO2)C(=O)CSCC(=O)Nc1ccc(C)cc1	-14	x	-9	x	1	0	i	x
COC(=O)c1cn(C)c2ccc(S(=O)(=O)N3CCCCC3)cc2c1=O	x	7	-39	2	2	-2	i	9
CCn1cc(Cl)c(C(=O)Nc2cc(C(=O)OC)cc(C(=O)OC)c2)n1	-4	x	4	-8	2	1	i	-2
O=C(O)COc1ccccc1/C=N/NC(=O)CSc1nc2ccccc2c(=O)n1-c1ccccc1	1	-18	5	-2	2	4	i	3
COc1ccc(-c2csc(NC(=O)CN3C(=O)C4CC=CCC4C3=O)n2)cc1OC (centres undefined)	-2	17	-155	0	2	-1	i	-3
COc1ccc(-n2c(SCC(=O)Nc3ccc(Cl)cc3)nc(O)c(Cc3ccccc3)c2=O)cc1	-2	-16	8	2	3	-2	i	4
O=C(COC(=O)c1cc(S(=O)(=O)N2CCOCC2)cs1)c1ccccc1	-12	-12	-31	5	1	1	i	1
O=C(CSc1nnc(-c2ccc(NS(=O)(=O)c3ccccc3)cc2)o1)NCC1CCCO1 (centres undefined)	2	-8	x	3	4	7	i	4
Cc1ccccc1OCC1CN(CN2CCOCC2)C(=O)O1 (centres undefined)	-8	-2	-44	-1	-4	-5	i	0
C#CCOCCOCCOCCNc1nc(N2CCN(C(=O)[C@H](CCCCN)n3cc(CCC(=O)O)nn3)CC2)nc(N2CCN(C(=O)[C@H](CCCCN)n3cc(CC(C)O)nn3)CC2)n1 (some centres undefined)	-5	0	-8	x	6	3	x	x
CN(C)C(=O)CN1C(=O)NC2(CCc3ccccc32)C1=O (centres undefined)	-11	4	-175	1	0	1	i	-8
CCN(CC)CCNC(=O)c1ccc(NC(=O)c2cc(-c3ccco3)nc3ccccc23)cc1	-6	-7	-16	3	0	0	i	72	eIF4H FP inh retest=10;PABP FP inh retest=10
Cc1ccsc1/C=N/NC(=O)c1cc(-c2ccncc2)nc2ccccc12	78*	x	-261	9	10	-8	i	-11
O=C(Nc1nc2ccccc2s1)c1cc(-c2ccccc2)nn1-c1ccccc1	44	4	x	5	-8	-25	i	-10
CC(C)N1C2OC(C3OC4C(O3)N(C(C)C)S(=O)(=O)N4C(C)C)OC2N(C(C)C)S1(=O)=O (centres undefined)	-13	-1	-14	10	6	4	i	-7
CCCOC(=O)CSC1=C(C#N)C(c2ccccc2Cl)CC(=O)N1 (centres undefined)	x	-9	28	0	0	-16	i	-7
Cc1nn(-c2ccccc2)c(C)c1NC(=O)COC(=O)c1cc([N+](=O)[O-])ccc1NCCO	-3	-15	11	18	5	1	i	10
CCCCNC(=O)c1ccc(Cc2cn(C)c3ccccc23)nc1	x	-13	-5	x	-2	0	x	x
CCCCc1nc(S(=O)(=O)c2ccc(Cl)cc2)c(N2CCOCC2)o1	-12	-9	-13	-5	-3	4	x	0
COCC(C)n1c(C)cc(C(=O)CSc2nnc(N)s2)c1C (centres undefined)	-1	-37	x	24	-2	-2	i	23
O=C(O)CC/C(=C\c1ccc(Cl)c([N+](=O)[O-])c1)c1nc2ccccc2s1	7	4	19	-7	14	2	i	-7
CCCCCC(=O)N/N=C/c1ccc(N(C)C)cc1	-9	-10	-8	-2	4	6	i	-6
CCCCC(=O)NC(=S)Nc1cccc(C(=O)O)c1	-8	1	-8	-6	6	1	i	3
CCOC(=O)C1CCCN(C(=O)C2CCN(S(=O)(=O)c3cnc[nH]3)CC2)C1 (centres undefined)	-8	-13	x	-2	10	0	i	-4
CC(=O)N1c2ccc(S(=O)(=O)N(C)CC(=O)NC(C)c3ccccc3)cc2CC1C (centres undefined)	-16	-23	5	6	3	-1	i	-8
CCOC(=O)c1c(CSC(=N)N)n(C)c2cc(Br)c(OC(C)=O)cc12	7	x	-11	-13	1	1	i	-4

Following part:
SMILES	CSC inhib	Yeast UUG start	HIV Env fusion	PABP FP inh	MT1-MMP act inh	MT1-MMP act inh RFP	Rce1 inh	eIF4H FP inh	others
COc1ccc2[nH]c3c(N4CCC(O)(c5cccc(C(F)(F)F)c5)CC4)ncnc3c2c1	6	-17	100*	1	5	-23	i	-8
COc1cccc(-c2nnc3sc(-c4ccc(C)cc4)nn23)c1	15	x	x	-6	x	x	i	-8
CN1CCN(Cc2nc3ccccc3c(=O)n2Cc2nc(-c3ccccc3F)cs2)CC1	49	-8	3	-2	-6	1	i	0
CCC(C)NC(=O)CSc1nc2cc3c(cc2c(=O)n1Cc1ccco1)OCO3 (centres undefined)	x	x	3	3	-2	-3	x	-4
CCOC(=O)c1c(NC(=S)Nc2ccc(OC)cc2)sc2c1CCCCC2	-11	x	-33	-8	3	6	i	-2
S=C1NCCOCCOCCOCCOCCN1	-17	-23	-15	-6	3	-2	i	-7
CCC(=O)Nc1cccc(C2=NOC3(C2)C[C@H](C(N)=O)N(C(=O)Cc2ccc([N+](=O)[O-])cc2)C3)c1 (some centres undefined)	-5	16	-2	4	-2	1	i	3
Cc1ccc(OCCCOc2cccc3cccnc23)cc1C	4	-6	x	-2	2	-4	i	-2
CSc1ncccc1C(=O)N1CCCC(Nc2ccc(F)c(F)c2)C1 (centres undefined)	x	-11	5	x	1	1	x	x
COc1cc(C)c(Cl)cc1S(=O)(=O)n1ccnc1C	x	-16	x	-8	4	5	i	-3
Cc1nc(-c2ccc(NC(=O)Cc3ccccc3)cc2)cs1	29	-9	-27	6	0	-3	i	-4
Cc1nnc(-c2cnn(C)c2N)n1CCCN(C)C	-5	x	-15	-7	-3	0	i	4
O=C(Nc1ccc2ccccc2c1)c1ccc(Br)o1	3	-6	-90	13	0	5	i	8
COc1cc(C(=O)NC2CC(C)(C)NC(C)(C)C2)cc(OC)c1OC	13	x	-2	6	-2	-1	i	-9
COc1ccc(NC(=O)CSc2nnc(-c3cccnc3)o2)c(OC)c1	-8	-12	2	x	2	1	i	x
O=C(NN1C(=O)/C(=C\c2cccnc2)SC1=S)c1ccco1	-12	x	23	3	-1	5	i	-4
CCOC(=O)c1c(C)[nH]c(C2=NNC(=Nc3ccc(OCC)cc3)SC2)c1C	3	x	-52	-4	3	-1	x	-9
CCc1ccc(-c2cc(C)no2)cc1S(=O)(=O)N1CCOc2ccccc21	32	8	20	6	-1	-18	i	-6
Cc1ccc([C@@H]2CC=C(C(=O)O)[C@H](c3cccc(Cl)c3)N2S(=O)(=O)c2ccc(C)cc2)cc1	-6	-16	-16	x	4	2	x	x
